From PubChem BioAssay
N370S GC mod = N370S glucocerebrosidase modulation, Gaucher chaperone candidate; Potency, µM (top dose mostly 59.4 µM), for the others: at the top dose activity change, negative = inhibition, most hits filed as inhibitors; AID 2101; N370S GC spleen homogenate, 4MU-glucoside fluorescence; P04062; actives 0.092% (n = 330,000);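 note: 0% = full enzyme activity and -100% = no enzyme basal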
FEN1 inh = blocks human flap endonuclease 1 | P39748 | Recombinant FEN1 flap cleavage, fluorescence, 15 min | Potency, µM (highest dose often 114 µM), inactives show at the highest dose activity change, negative = inhibition, hits mostly inhibitors | actives 0.35% (n = 390,000) | AID 588795; note: nearly all actives have a fitted effect of over 65% in size
Target sequence (P39748 whole entry, looked up): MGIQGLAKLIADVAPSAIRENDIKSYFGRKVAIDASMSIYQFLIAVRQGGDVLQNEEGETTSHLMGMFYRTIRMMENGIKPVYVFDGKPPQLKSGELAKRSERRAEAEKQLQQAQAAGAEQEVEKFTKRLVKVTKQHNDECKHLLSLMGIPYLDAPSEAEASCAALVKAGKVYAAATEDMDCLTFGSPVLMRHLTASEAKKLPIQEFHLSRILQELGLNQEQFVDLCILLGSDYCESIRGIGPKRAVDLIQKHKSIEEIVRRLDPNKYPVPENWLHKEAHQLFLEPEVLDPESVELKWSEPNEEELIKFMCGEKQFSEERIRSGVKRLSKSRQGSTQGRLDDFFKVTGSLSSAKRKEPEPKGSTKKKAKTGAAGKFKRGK
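Concentration–response screening of FEN1 (10 nM): 15 min compound preincubation at room temperature, reaction started with 50 nM substrate and read at 0 and 15 min. Corrected, normalized data were fitted by a four-parameter Hill equation.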
Starred values were filed as active, the others as inactive; ? = inconclusive; nt = not tested or not shown; & = joins results of further samples; [ ] = another dose, or the depositor's remark. Calls come from the whole dose curve; as a rule, active = well fitted curve in the direction sought with a large enough effect; inconclusive = small, poorly fitted or top-dose-only effect, or another doubt; inactive = no such curve, though single readings can be large; an effect the other way counts as inactive or inconclusive. Unless noted, % is set by controls: 0 for no effect and ±100 for the full control effect; potency is the fitted concentration of half-maximal effect. These rows are one share of the data; most or all hits stand in other tables.

Below each compound: FEN1 inh, N370S GC mod
- COc1ccc(CNC(=O)C[C@H]2C[C@H](C(=O)N3CCOCC3)[C@@]3(C)c4[nH]c5ccc(Cl)cc5c4CCN3C2=O)cc1OC
  -5%, nt
- COc1ccc(C(=O)NNC(=O)C(=O)N2CCCCC2)cc1OC
  -3%, -3%
- Cc1cc(C)c(S(=O)(=O)Nc2cccnc2)c(C)c1
  0%, -3%
- Cc1cc(OCC(=O)Nc2ccncc2)cc(C)c1Cl
  33%[activator], ?
- O=C1C2C3C=CC(C3)C2C(=O)N1CNc1ccccc1 (centres undefined)
  -3%, -2%
- CCCc1cc(=O)n2nc(N3CCC(C(=O)NCc4ccco4)CC3)sc2n1
  5%, 0%
- CC(C(=O)O)N1C(=O)C2C3CC(C2C1=O)C1C(c2ccccc2)c2sc(=O)[nH]c2SC31 (centres undefined)
  3%, 3%
- CN(C)CCC1Sc2ccccc2Oc2ccccc21 (centres undefined)
  -9%, 18%
- Cc1ccc(C(C)C)c(Oc2nnnn2-c2ccccc2)c1
  -5%, 14%
- COc1ccc(-c2nn(-c3ccccc3)cc2C(=O)NC(=S)NNC(=O)c2ccncc2)cc1
  -2%, -6%
- Cc1ccc(NC(=S)N2CCN(c3nccc(C(F)(F)F)n3)CC2)c(C)c1
  16%, 18%
- CCOc1ccccc1NC(=O)N1CCC(NC(=O)C2CCCCC2)CC1
  3%, -10%
- CCCCCn1c(=O)c2ccccc2n2c(CCl)nnc12
  3%, 9%
- CS(=O)(=O)N1CCCC(C(=O)NCc2ccccc2Cl)C1 (centres undefined)
  0%, -13%
- CCN1CCN(C(=O)CCNC(=O)Cn2cnc3ccccc3c2=O)CC1
  -1%, -13%
- Cc1ccc(N2C(=O)[C@@H]3C(c4ccc(F)cc4)=NO[C@@H]3C2=O)cc1
  7%, -2%
- CCOC(=O)C1=CN2CCCC[C@@H]2CC1=O
  -1%, nt
- Cc1ccc(NC(=O)c2c(C)nn(-c3ccccc3)c2Cl)cc1
  11%, -4%
- CC1(C)Oc2ccc3ccc(=O)oc3c2/C(=C/NCCN/C=C2\C(=O)C(C)(C)Oc3ccc4ccc(=O)oc4c32)C1=O
  nt, 10%
- CCn1nc(C(=O)Nc2nc3ccccc3[nH]2)c2ccccc2c1=O
  3%, -6%

In another format: 4 of the compounds above
Cc1ccc(NC(=S)N2CCN(c3nccc(C(F)(F)F)n3)CC2)c(C)c1
  FEN1 inh: 16%	N370S GC mod: 18%
Cc1ccc(N2C(=O)[C@@H]3C(c4ccc(F)cc4)=NO[C@@H]3C2=O)cc1
  FEN1 inh: 7%	N370S GC mod: -2%
COc1ccc(CNC(=O)C[C@H]2C[C@H](C(=O)N3CCOCC3)[C@@]3(C)c4[nH]c5ccc(Cl)cc5c4CCN3C2=O)cc1OC
  FEN1 inh: -5%	N370S GC mod: nt
CCn1nc(C(=O)Nc2nc3ccccc3[nH]2)c2ccccc2c1=O
  FEN1 inh: 3%	N370S GC mod: -6%

Next entries.
Below each compound: FEN1 inh, N370S GC mod
- Cc1c(NC(=O)c2ccccc2NS(=O)(=O)c2ccc(F)cc2)c(=O)n(-c2ccccc2)n1C
  0%, 3%
- Cc1nnc(SCC(=O)N2c3ccccc3CC2C)[nH]c1=O (centres undefined)
  -1%, -3%
- COc1cccc(Cn2cnc3c(NS(=O)(=O)c4ccc(Cl)cc4)c(C)c(C)cc32)c1
  -1%, 5%
- COc1ccc(S(=O)(=O)N2CCCCC2)cc1-n1cnnn1
  -1%, 9%
- COc1ccc(-c2nc3c(c4c2CC(C)OC4)CN(CCC(C)C)CC3)cc1 (centres undefined)
  nt, -3%[12.8 µM]
- Cc1ccc(C)c(-n2c(CNc3ccc(F)cc3)nnc2SCC(N)=O)c1
  4%, 4%[2.35 µM]
- CC(=O)c1ccc(NC(=O)COC(=O)c2nc(Cl)ccc2Cl)cc1
  8%, -1%
- CN(C)[C@H]1C(=O)C(C(=O)NCN2CCCC2)=C(O)[C@]2(O)C(=O)C3=C(O)c4c(O)cccc4[C@@](C)(O)[C@H]3C[C@@H]12
  nt, 8%[21.6 µM]
- CCCC1=C(C(=O)OCC)C(c2ccccc2OC)NC(=O)N1 (centres undefined)
  -6%, 5%
- COc1cc(NC(=O)COC(=O)/C=C/c2ccc(Cl)cc2Cl)cc(OC)c1
  0%, -14%
- COc1cccc(-c2nc(SC)nc3sc(C(=O)NC(C)(C)C)c(N)c23)c1
  -12%, nt
- CC(Sc1nnc(C2CC2)n1C1CC1)C(=O)N(C)Cc1cccc(F)c1 (centres undefined)
  18%, nt
- Nc1c(C(O)(C(F)(F)F)C(F)(F)F)ccc2ccccc12
  -11%, ?
- COc1cc(NC(=O)NNC(=O)c2cc3occc3n2C)cc(OC)c1OC
  -19%, 4%
- C=CC[C@@H](CC(=O)N[C@H](CO)Cc1ccccc1)C(=O)NC[C@H](OC(=O)[C@@H](CC=C)Cc1ccc(F)cc1)c1ccccc1
  -5%, nt
- O=S(=O)(c1ccc(Cl)cc1)c1nnn2c1nc(NCc1ccccc1)c1sccc12
  6%, nt
- O=C(CSCc1ccc(Br)cc1)N1CCCC1
  6%, 4%
- CC(C)[C@@H](CC(=O)N[C@@H]1CCNC[C@H]1C(=O)N[C@H](CC(=O)N[C@@H](CCC(=O)O)CC(=O)O)Cc1ccccc1)NC(=O)C[C@H](Cc1c[nH]c2ccccc12)NC(=O)[C@@H]1CCCC[C@H]1N
  nt, 14%
- CC(=O)NC(Cc1ccccc1F)C(=O)NC1CCN(c2ncccc2[N+](=O)[O-])CC1 (centres undefined)
  -2%, ?
- COc1ccc(NC(=O)c2ccc3c(SCC(=O)O)c4c(nc3c2)CCCC4)c(OC)c1
  ?, -18%
- Cc1ccc(NC(=O)CCNS(=O)(=O)c2cccc3nsnc23)cc1
  17%&4%, -2%
- Cc1nn(Cc2ccc(Cl)cc2)c(C)c1NC(=O)C(c1ccccc1)c1ccccc1
  -16%, 1%
- Cn1ccnc1SCC(=O)Nc1ccc2nc(SCC(=O)NC3CC3)sc2c1
  7%, -11%
- O=C(NCc1ccc(Cl)cc1)C(=O)NCC1OCCN1S(=O)(=O)c1cc(F)ccc1F (centres undefined)
  0%, -8%
- O=C(NC1(C(F)(F)F)NC(=O)N(C2CCCCC2)C1=O)c1cccs1 (centres undefined)
  1%, -4%
- CCN(CC)S(=O)(=O)c1ccc(C(=O)NCc2n[nH]c(=S)n2-c2ccc(Cl)c(Cl)c2)cc1
  0%, 4%
- COC(CN(C)S(=O)(=O)c1cc2c3c(c1)CCN3C(=O)CC2)OC
  -5%, 1%
- O=C1CSC(c2ccc3c(c2)OCO3)N1c1ccc(Oc2ccccc2)cc1 (centres undefined)
  -17%, -8%
- Cc1nc2ccc(NS(=O)(=O)c3ccc(F)cc3)cc2s1
  -3%, -9%
- O=C(c1ccc(-n2cncn2)c([N+](=O)[O-])c1)N1CCN(S(=O)(=O)c2ccc(Cl)cc2)CC1
  10%, -5%
- CN(C)Cc1cnc2ccc(Cl)cn12
  10%, 3%
- CCCCn1c(N)c(N(Cc2ccccc2OC)C(=O)COc2ccccc2OC)c(=O)[nH]c1=O
  2%, 0%
- CCc1ccc(N2CC(O)(c3cccs3)[N+]3=C2SCCC3)cc1 (centres undefined)
  1%, -14%
- COc1ccc(N2CC(NC(=O)Nc3ccccc3)CC2=O)cc1 (centres undefined)
  18%, -2%
- CN(C)c1ccc(C(=O)c2ccc(N(C)C)c3ccccc23)cc1
  -21%, ?
- O=C1OC(c2ccccc2)=NC12CC2c1ccc(Cl)cc1 (centres undefined)
  -1%, -7%
- COc1cc(NC(=O)CCc2c(C)n(C)c3cc(-c4ccccc4C)nn3c2=O)cc(OC)c1OC
  10%, nt
- Cc1cccc(N/C(N)=N/c2nc(C(F)(F)F)cc(=O)[nH]2)c1C
  -6%, 23%
- Cc1ccc(/C=N/N2CCN(c3ccccn3)CC2)o1
  5%, 5%
- Cc1cc(NC(=O)c2cccc3ccccc23)cc(C)c1OCC(=O)N1CCOCC1
  -7%, 1%
- Fc1ccc(C2=CC(c3ccco3)n3nnnc3N2)cc1 (centres undefined)
  -5%, -20%
- COc1ccc(Cl)cc1NC(=O)CN(C)Cc1ccc(OC)c(OC)c1
  2%, -3%
- CC(C)(C)OC(=O)NCC(=O)N1CCC(C(=O)O)CC1
  -1%, -2%
- O=C(Cc1ccccc1)N1CCC2(CC1)NCCc1[nH]cnc12
  6%, -3%
- O=C(CCN1C(=O)S/C(=C/c2ccccc2)C1=O)Nc1ccc(C(=O)O)c(O)c1
  3%, 0%
- Cc1cccc(NC(=O)CSc2nc(C)c(Cc3ccccc3)c(=O)[nH]2)c1C
  0%, 4%
- Cc1ccc(CCNC(=O)c2nnn(-c3cccc(C)c3)c2N)cc1
  -18%, 6%
- Cc1ccc(NC(=O)C2Cc3ccccc3N2C(=O)c2ccccc2)cc1Cl (centres undefined)
  9%, nt
- CC(c1ccc(F)cc1)n1cc(S(=O)(=O)N2CCCC2)ccc1=O (centres undefined)
  7%, nt
- CN(C1CCCCC1)S(=O)(=O)c1ccc2c(c1)c(=O)c(C(=O)NCCCN1CCCC1)cn2C
  -14%, 14%
- COc1ccc(NC(=O)CSc2nc(-c3ccc(F)cc3)[nH]c2-c2ccc(C)cc2)cc1OC
  -25%, nt
- COc1ccc(C2C(C(=O)c3sc(C)nc3C)=C(O)C(=O)N2CCN(C)C)cc1 (centres undefined)
  8%, -1%
- COc1cccc(NC(=S)N(CCCN2CCOCC2)C(C)c2cc3cccc(OC)c3o2)c1 (centres undefined)
  -18%, ?
- CCOc1cc(C(=O)N/N=C/C(Br)=C/c2ccccc2)cc(OCC)c1OCC
  3%, 0%
- O=C(c1ccc(NS(=O)(=O)c2ccc(F)cc2)cc1)N1CCN(c2ccccc2O)CC1
  -2%, -14%
- Cc1cccc2cc(C(c3nnnn3CC3CCCO3)N3CCCc4ccccc43)c(=O)[nH]c12 (centres undefined)
  8%, 24%
- COc1ccc(NC(=O)CN(c2cccc(F)c2)S(C)(=O)=O)cc1OC
  6%, 3%
- COC(=O)c1ccc(NC(=O)CSc2nnc(-c3ccccc3)n2C)cc1
  7%, 2%
- Cc1ccc(NC(=O)CCC(=O)OCc2ccc(Br)cc2)cc1
  6%, 8%
- COc1cc(SC)ccc1C(=O)Nc1c(Cl)cncc1Cl
  -12%, -7%

(cont.)
Below each compound: FEN1 inh, N370S GC mod
- CCOC(=O)c1ccc(CSc2n[nH]c(C)n2)o1
  -4%, -2%
- COc1ccc(NC2CCCN(C(=O)CSc3ccccc3)C2)cc1 (centres undefined)
  18%, -9%
- Cc1ccc(NC(C)C(=O)N/N=C/c2ccc([N+](=O)[O-])s2)cc1 (centres undefined)
  40%[activator], 2%
- Cc1ccc(S(=O)(=O)N2CCC(C(=O)N3CCC[C@H]3C(=O)NCc3ccco3)CC2)cc1
  3%, -7%
- Cc1cccc(N2CCN(S(=O)(=O)c3cc(-c4cc(C)no4)ccc3C)CC2C)c1 (centres undefined)
  -10%, 1%
- CC(C)[C@H](NC(=O)c1ccccc1)C(=O)OCC(=O)Nc1ncc(Cl)cc1Cl
  -7%, nt
- CC(=O)c1sc2nc(-c3cccs3)cc(C(F)(F)F)c2c1N
  -2%, 28%
- CCCOc1cccc(C(=O)Nc2cccnc2)c1
  0%, -27%
- COc1ccc(S(=O)(=O)Nc2ccc(Oc3ncccn3)c(Cl)c2)cc1
  8%, -24%
- O=C(CCCCO)c1ccc(O)c(Cl)c1
  -2%, -1%
- COc1ccccc1C(=O)Nc1ccc2c(c1)nc1n2CCN(Cc2ccccc2)C1
  3%, 1%
- CN(CC(=O)Nc1ccccc1Br)C(=O)Cn1[nH]c(=O)c2ccccc2c1=O
  14%, nt
- O=C(CSc1nccn1Cc1ccc(F)cc1)NCc1ccccc1
  19%, nt
- O=C(N[C@@H](Cc1ccccc1)C(=O)O)c1cccs1
  -8%, 2%
- O=C1Nc2ccccc2C1(O)c1ccccc1 (centres undefined)
  1%, -25%
- CCOC(=O)N1CC=C2C(C#N)=C(N)C(C#N)(C#N)[C@H](c3ccsc3)[C@H]2C1
  8%, 4%
- CC(C)CNC(=O)C1CCCN(S(=O)(=O)c2ccc(-n3cnnn3)cc2)C1 (centres undefined)
  3%, 2%
- Cc1ccc(NC(=O)CN(C)C(=O)Cn2cc(C(F)(F)F)cc(Cl)c2=O)cc1
  -3%, 5%
- CN(C)c1ccc(C=C2C(=O)OC3(CCCC3)OC2=O)cc1
  10%, -3%
- Cc1cc(C)cc(CC2CC(=O)N(c3ccc4c(c3)OCCO4)C2=O)c1 (centres undefined)
  -24%, -17%
- O=C(CCN1CCCCC1)Nc1ccccc1
  16%, -18%
- Cc1ccccc1-c1nnc(CN2CCN(c3cc(Cl)ccc3C)CC2)o1
  -22%, nt
- CC(C)(C)C(=O)Nc1ccccc1C(=O)N1CCCC1
  9%, 4%
- O=C1CSC(c2ccccc2F)N1c1ccccc1 (centres undefined)
  -6%, 1%
- CCOC(=O)COc1ncn(-c2ccccc2)n1
  0%, ?
- CC(C(=O)Nc1c2c(cc3c1CCC3)CCC2)N1CCCC1 (centres undefined)
  7%, 13%
- Cc1ccc(S(=O)(=O)Nc2ccc(C(=O)NCc3cccnc3)cc2)cc1
  7%, -4%
- COc1ccc(CN(C(=O)c2oc3cc(C)c(C)cc3c2C)C2CCS(=O)(=O)C2)cc1OC (centres undefined)
  -25%, -6%
